CBX7 inh = inhibitors of human CBX7 binding to H3K27me3 peptide | AlphaScreen His6-CBX7 / biotin-H3K27me3 peptide binding; hits give low values | normalised signal (fraction of DMSO) (no concentration beside the values) | 66,000 tested, 1.1% active; in the data active = normalised signal below about 0.5;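 note: 100 nL library stock added to about 20 µL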
Target sequence (O95931 whole entry, looked up): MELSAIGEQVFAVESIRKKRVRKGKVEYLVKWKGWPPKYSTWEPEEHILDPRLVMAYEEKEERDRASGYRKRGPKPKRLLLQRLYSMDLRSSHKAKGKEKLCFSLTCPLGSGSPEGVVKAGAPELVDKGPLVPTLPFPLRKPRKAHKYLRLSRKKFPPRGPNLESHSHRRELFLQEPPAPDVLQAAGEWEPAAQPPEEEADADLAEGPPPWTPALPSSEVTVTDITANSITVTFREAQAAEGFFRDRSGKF
CBX7 inh z-score = recorded beside CBX7 inh, whose call it bears; z-score; measured here: z-score of CBX7 signal; some inactives read as strong as hits; reference of the scale not given here;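 same signal on another scale; lower means less binding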
Numbers without * were called inactive; & = joins results of further samples. A portion of the library. The share of hits here may be higher or lower than overall.

SMILES	CBX7 inh	CBX7 inh z-score
COc1ccc(-c2nc3ccc(C(=O)NCCCN4CCCC4)cc3nc2-c2ccc(OC)cc2)cc1	1.28	3.76
CC1CCN(CCN2CCn3c2nc2ccccc23)CC1	1.23	2.43
Cc1ccccc1C(=O)NCCCN=C1NS(=O)(=O)c2ccccc21	1	0.00593
COc1cc(OC)c(OC)cc1CN1CCN(Cc2cccc(Br)c2)CC1	0.946	-1.33
CCCCNC(=O)c1cnn2c(C)c(Cc3c(F)cccc3Cl)c(C)nc12	1.04	0.969
Cc1nn2c3c(cnc2c1-c1ccccc1)C(=O)CC(C)(C)C3	1.05	0.486
Cc1ccc(Cn2c(=O)c3cccnc3n(Cc3ccc(Cl)cc3)c2=O)cc1	1.18	3.13
CCOC(=O)c1c(NC(=O)CN2CCCCC2)sc2c1CCCCC2	1.05	2.04
COc1ccc(C(=O)NCc2nc3ccccc3n2C(C)C)cc1OC	1.02	0.755
Cc1nn(C)c(C)c1S(=O)(=O)N1CCCC(C(=O)Nc2cccc(Cl)c2)C1 (configuration not stated)	1.15	1.74
Cc1ccc(-c2nc(S(=O)(=O)c3ccc(F)cc3)c(SCC(C)C)o2)cc1	1.11	4.51
Cc1cc(C)n2c(Nc3ccc(C(C)C)cc3)c(-c3ccccc3)nc2n1	0.907	-1.11
Cc1onc(-c2ccccc2)c1C(=O)Nc1cccc(Oc2ccccc2)c1	0.874&0.964	-0.497&-0.631
Cc1ccc(Cl)cc1N1CCN(C(=O)CCCCn2c(=O)[nH]c3ccccc3c2=O)CC1	0.781	-4.32
COc1ccccc1C1CC(=O)NC2=C1C(=O)CCC2 (configuration not stated)	1.27	1.78
Cc1nc2ncnn2c(C)c1CCC(=O)NC(C)c1ccc2c(c1)OCCO2 (configuration not stated)	1.04	0.765
CCC1Oc2ccccc2N(CC(=O)NCCN2CCN(c3ccc(OC)cc3)CC2)C1=O (configuration not stated)	0.868	-3.98
Cc1oc(-c2cccc(Cl)c2)nc1CN1CCC(C(=O)NCc2ccc(F)cc2)CC1	0.985	-0.378
O=C(NCC1CCCO1)c1cc(=O)[nH]c2ccc(S(=O)(=O)N3CCCCCC3)cc12 (configuration not stated)	1	0.053
COc1cccc(NC(=O)CSc2nnc(CNC(=O)c3ccccc3F)o2)c1	1.09	2.58
Cc1sc2ncn(CC(=O)NCc3ccc4c(c3)OCO4)c(=O)c2c1S(=O)(=O)N1CCC(C)CC1	1.13	0.129
CCCc1nn(-c2cc(Cl)ccc2OC)c2c1C(=O)CCC2	1	0.108
CCCCNS(=O)(=O)c1ccc2nc(-c3cccnc3)cc(C(=O)NCc3ccc(F)cc3)c2c1	1.03	0.737
CCCN1CCN(C(=O)c2cc(C)n(-c3ccccc3)n2)CC1	1.02	0.696
COc1ccccc1NC(=O)c1cnc(N2CCN(c3ncccn3)CC2)c2ccccc12	0.996	-0.0258
COc1ccc(-n2c(C)nc3cc(C(=O)NC4CCCCCC4)ccc32)cc1	0.901	-2.66
Cc1cc(C(=O)Nc2c(C)nn(Cc3ccccc3C)c2C)no1	1.06	1.05
COc1ccccc1NC(=O)CCNS(=O)(=O)c1ccc2c(c1)CCN2C(C)=O	0.992	-0.373
Cc1cc(NC2c3ncccc3C(=O)N2C2CCCCC2)ccc1Br (configuration not stated)	0.818	-2.35
CC(C)CSc1oc(-c2cccs2)nc1S(=O)(=O)c1ccccc1	0.973	-0.0474
CCOC(CNC(=O)c1ccc2c(c1)N(Cc1ccccc1)C(=O)c1ccccc1S2=O)OCC (configuration not stated)	1.04	1.01
CCOC(=O)c1ccc(NC(=O)CSc2nnc(-c3cccnc3)n2C)cc1	1.07	1.88
CCOC(=O)c1c(NC(=O)c2ccc(OCC)c(Cl)c2)sc2c1CCCC2	1.16	2.51
Cc1nc2ncnn2c(C)c1CCC(=O)N1CCc2ccccc2C1	1.14	2.72
Cc1ccc(-c2nn(CCC(=O)NCCN3CCOCC3)c(=O)c3ccccc23)cc1	0.993	-0.205
COc1ccc(CNC(=O)c2ccc(CNS(=O)(=O)c3ccccc3)cc2)cc1	0.986	-0.0626
CCN(CC)CCCNC(=O)c1cc(-c2ccc(Cl)cc2)on1	1.19	0.225
Cc1ccc(Nc2c(-c3c[nH]c4ccccc34)nc3cc(C)ccn23)cc1	0.657	-9.14
CCOc1ccc(CNC(=O)CCc2nc(-c3ccc(OC)cc3)no2)cc1	0.922	-1.19
O=C(CN1C(=O)COc2ccccc21)NCCCN1CCCC1	0.997	-0.0946
COc1cc(NC(=O)CCc2c(C)nc3cc(-c4ccccc4OC)nn3c2C)cc(OC)c1	1.01	0.514
COc1ccc(CCNC(=O)c2ccc(CNc3c(N4CCOCC4)c(=O)c3=O)cc2)cc1OC	0.905	-1.35
CCOc1ccc2nc(N3CCCC(C(=O)Nc4ccc(F)cc4F)C3)sc2c1 (configuration not stated)	1.03	0.919
COc1ccccc1NC(=O)c1c(NCc2sccc2C)sc2c1CCCC2	0.571	-6.01
CC1CC(C)CN(c2nnc(NC(=O)Nc3ccc(F)cc3)s2)C1 (configuration not stated)	0.979	-0.0848
COc1ccccc1-c1c(C)nn2c(NCc3ccc(C)cc3)cc(C)nc12	0.998	-0.0381
COc1ccc(CC(=O)Nc2c3c(nn2-c2cccc(Cl)c2)CSC3)cc1OC	0.934	-3.32
O=C(CCCN1C(=O)CSc2ncccc21)NCc1ccccc1	1.03	0.0785
CCc1nc(N2CCCC2)c(C#N)c2c1CCCC2	1.15	1.74
COc1ccc(CNC(=O)c2cnn3c(C(F)(F)F)cc(-c4ccccc4)nc23)cc1	0.991	-0.0532
CCOc1ccc(CC(=O)NCCc2cc3cc(C)c(C)cc3[nH]c2=O)cc1	1.01	0.228
COc1cc2c(C(=O)N(C)c3cccc(C)c3)cn(CC(C)C)c(=O)c2cc1OC	1	0.028
COc1ccc(-c2noc(COc3ccccc3)n2)cc1	1.46	9.14
Cc1cccc(N2CCN(C(=O)CN3CCN(Cc4ccccc4C)C3=O)CC2C)c1 (configuration not stated)	1.03	1.3
CCN1C(=O)c2ccccc2S(=O)c2ccc(C(=O)NCc3cccs3)cc21 (configuration not stated)	0.971	-0.74
COCCCNC(=O)CCn1nc(-c2ccccc2)ccc1=O	0.998	-0.0641
O=C(Nc1ccccc1F)c1n[nH]c(=O)c2ccccc12	1.06	0.384
Cc1ccc(C)c(CSCC2Nc3ccc(C(=O)NC(C)C)cc3NC2=O)c1 (configuration not stated)	1.04	0.549
CC1=Nc2cc(C(=O)N3CCN(C)CC3)ccc2Sc2ccccc21	1.07	1.14
N=c1n(CCN2CCCCC2)c2ccccc2n1CC(O)c1cccs1 (configuration not stated)	1.12	1.32

Some of the entries so far, in CSV form.
compound,CBX7 inh,CBX7 inh z-score
COc1ccc(-c2noc(COc3ccccc3)n2)cc1,1.46,9.14
Cc1cccc(N2CCN(C(=O)CN3CCN(Cc4ccccc4C)C3=O)CC2C)c1 (configuration not stated),1.03,1.3

Next part
SMILES	CBX7 inh	CBX7 inh z-score
COCCNC(=O)c1cnn2c1NC(c1ccco1)CC2C(F)(F)F (configuration not stated)	1.1	1.26
Cc1cccc(OCC(=O)NCc2ccncc2)c1C	1.03	0.521
Cc1ccc(C2Nc3ccccc3NC3=C2C(=O)CC(c2ccccc2)C3)o1 (configuration not stated)	0.71	-1.15
Cc1cc(C)n(-c2nc3ccccc3nc2Nc2ccc3ccccc3c2)n1	2.61	57.4
COCCNC(=O)CN1CCN(Cc2cccc(C)c2)C1=O	1.01	0.103
CC1=C(C(=O)Nc2cccc(C)n2)C(c2ccc(Br)cc2)C2=C(CCCC2=O)N1 (configuration not stated)	1.19	2.04
CCN1C(=O)c2ccccc2Sc2ccc(C(=O)NCCOC)cc21	0.96	-0.718
Cc1ccc(NC(=O)CN(C)S(=O)(=O)c2cccc3cccnc23)cc1F	0.97	-0.682
Cc1ccc2c(c1)N(CCC(=O)NCc1ccc(F)cc1)C(=O)CO2	1.03	0.354
Cc1ccc(-c2nn3cc(-c4ccccc4)c4c3n2CCCC4)cc1	0.962	-0.392
O=C(CCN1C(=O)c2ccccc2C1=O)Nc1nc(-c2ccccc2)cs1	0.95	-1.15
Cc1ccc(CN2C(=O)C(C(C)C(=O)O)Sc3ccccc32)cc1 (configuration not stated)	0.984	-0.319
COc1ccc(C(=O)NCCN=C2NS(=O)(=O)c3ccccc32)cc1	0.975	-0.633
Cc1ccc(S(=O)(=O)c2nc(-c3ccccc3)oc2SCC(=O)NCC2CCCO2)cc1 (configuration not stated)	1	0.0158
COc1ccc(Nc2c(-c3ccccc3)c3cc(Cl)ccc3[nH]c2=O)cc1	0.882	-1.35
Cc1ccc(-n2cc(-c3ccccc3)c3c(NCc4ccc5c(c4)OCO5)ncnc32)cc1	0.853	-3.74
COc1ccc(OC)c(-c2nc3ccccc3nc2-c2ccccc2)c1	1.24	1.79
COCCCN(C(=O)Nc1ccc(C)c(C)c1)C(C)c1ccccn1 (configuration not stated)	0.989	-0.29
COc1cccc(-c2nc(CS(=O)(=O)CC(=O)NCC(C)c3ccccc3)c(C)o2)c1 (configuration not stated)	0.99	-0.358
COc1ccc(Cl)cc1C(=O)Nc1ccc(S(=O)(=O)Nc2nccs2)cc1	1.27	2.58
Cc1cc(NCc2ccc(F)cc2)n2ncnc2n1	1.05	1.15
COc1ccc(OCc2nc(C#N)c(NCCN3CCOCC3)o2)cc1	1.02	0.888
CN1CCc2c(n(CC(O)CNC3CCCC3)c3ccccc23)C1=O (configuration not stated)	0.992	-0.156
CCCCN(C)CCCNC(=O)C1CCN(c2nnc(-n3cccc3)s2)CC1	1.83	8.81
Cc1ccc(-c2nc3nc(-c4ccc(F)cc4)cn3nc2-c2ccc(C)cc2)cc1	1.57	0.569
O=C1CSc2ccccc2N1Cc1ccccc1F	1.14	1.75
CCOc1ccc2c(c1)c(=O)c(S(=O)(=O)c1ccc(C)cc1)cn2Cc1cccc(F)c1	0.951	-1.84
CC1CCN(S(=O)(=O)c2ccc3ncn(CC(=O)N(C)C4CCCCC4)c(=O)c3c2)CC1	1.05	0.432
COCCCNC(=O)CCCc1cc(-c2ccc(OC)cc2)on1	1.01	0.65
CCCc1ccc(Oc2cn[nH]c2-c2ccc(OC)cc2O)cc1	0.702	-4.63
CCOc1ccc2nc(N3CCC(C(=O)N4CCN(c5ncccn5)CC4)CC3)sc2c1	0.989	-0.308
COc1cccc(NC(=O)CCNS(=O)(=O)c2ccc3c(c2)CCC(=O)N3)c1	1	0.0117
O=C(Nc1ccc2c(c1)OCCO2)C1CCCN(C(=O)c2cnn(-c3ccccc3)c2-n2cccc2)C1 (configuration not stated)	0.931	-3.45
Cc1oc(-c2ccc(Cl)cc2)nc1CSCC(=O)NC(C)C	1.12	1.29
COc1cc2c(C(=O)NCCCN3CC(C)CC(C)C3)cn(C)c(=O)c2cc1OC (configuration not stated)	1.17	2.51
c1ccc(CCSc2nnc(-c3ccncc3)n2-c2ccccc2)cc1	0.74	-3.63
Cc1ccc(S(=O)(=O)c2cn(CC(=O)Nc3cc(C)ccc3C)c3ccc(F)cc3c2=O)cc1	0.997	-0.0477
O=S(=O)(c1ccc(Cl)cc1)c1ccc(C(F)(F)F)cn1	1.13	1.44
Cc1ccc(CCNC(=O)C2CCC(=O)N2Cc2ccc(C)cc2)cc1 (configuration not stated)	1.16	3.01
NC(=O)CSc1nnc(Cc2c[nH]c3ccccc23)n1Cc1ccccc1	0.869	-1.83
CCc1ccc(CN(C)CCc2ccccn2)cc1	0.519	-3.76
Cc1nc2ccc(S(=O)(=O)NC(CC(C)C)C(=O)NC3CCCC3)cc2s1 (configuration not stated)	0.977	-0.683
O=C(NCCc1ccc(Cl)cc1)c1ccc2nc(-c3cccs3)c(-c3cccs3)nc2c1	0.968	-0.0322
COc1ccc(CCNC(=O)C2(C)CCC(=O)N2CCC(C)C)cc1OC (configuration not stated)	1.16	2.71
O=C(Nc1ccc(S(=O)(=O)Nc2cnc3ccccc3n2)cc1)c1cccnc1	0.828	-1.85
O=C(CN1CCN(Cc2ccccc2)C1=O)NCc1cccs1	0.878	-1.75
O=C(Nc1cccc(Cl)c1)c1noc2c1CCCCC2	1.1	0.452
CC1=Nc2cc(C(=O)NCCC3=CCCCC3)ccc2Sc2ccccc21	0.99	-0.123
CCC(C(=O)Nc1c(-c2ccc(F)cc2)nc2cc(C)ccn12)c1ccccc1 (configuration not stated)	1.08	0.817
C=CC(O)C(Cc1c[nH]c2ccccc12)NC(=O)OC(C)(C)C (configuration not stated)	1.12	1.27
CCc1nnc(NC(=O)CCCC2=NS(=O)(=O)c3ccccc3N2)s1	0.774	-2.6

Shown with two lines to a compound: part of the list above.
Values in the order: CBX7 inh | CBX7 inh z-score
O=S(=O)(c1ccc(Cl)cc1)c1ccc(C(F)(F)F)cn1
  1.13 | 1.44
Cc1ccc(CCNC(=O)C2CCC(=O)N2Cc2ccc(C)cc2)cc1 (configuration not stated)
  1.16 | 3.01
NC(=O)CSc1nnc(Cc2c[nH]c3ccccc23)n1Cc1ccccc1
  0.869 | -1.83
CCc1ccc(CN(C)CCc2ccccn2)cc1
  0.519 | -3.76
Cc1nc2ccc(S(=O)(=O)NC(CC(C)C)C(=O)NC3CCCC3)cc2s1 (configuration not stated)
  0.977 | -0.683
O=C(NCCc1ccc(Cl)cc1)c1ccc2nc(-c3cccs3)c(-c3cccs3)nc2c1
  0.968 | -0.0322
COc1ccc(CCNC(=O)C2(C)CCC(=O)N2CCC(C)C)cc1OC (configuration not stated)
  1.16 | 2.71
O=C(Nc1ccc(S(=O)(=O)Nc2cnc3ccccc3n2)cc1)c1cccnc1
  0.828 | -1.85
O=C(CN1CCN(Cc2ccccc2)C1=O)NCc1cccs1
  0.878 | -1.75
O=C(Nc1cccc(Cl)c1)c1noc2c1CCCCC2
  1.1 | 0.452
CC1=Nc2cc(C(=O)NCCC3=CCCCC3)ccc2Sc2ccccc21
  0.99 | -0.123
CCC(C(=O)Nc1c(-c2ccc(F)cc2)nc2cc(C)ccn12)c1ccccc1 (configuration not stated)
  1.08 | 0.817
C=CC(O)C(Cc1c[nH]c2ccccc12)NC(=O)OC(C)(C)C (configuration not stated)
  1.12 | 1.27
CCc1nnc(NC(=O)CCCC2=NS(=O)(=O)c3ccccc3N2)s1
  0.774 | -2.6
